Source: PubChem
AF4-AF9 inh: inhibitors of AF4 peptide binding to AF9, primary screen, biochemical, AlphaScreen, biotin-AF4 peptide, FLAG-AF9, single point; Protein AF-9 (Homo sapiens), P42568; inhibition, % at 10 µM; actives 0.47% (n = 350,000);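 active means every replicate reaching a set inhibition limit, whatever the replicate mean, cut at about 25% in these data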;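 further: 0% = plate neutral control median and 100% = total signal loss; the record names both 10 and 1 µM as test concentration; the first replicate is given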
Target sequence (P42568 whole entry, looked up): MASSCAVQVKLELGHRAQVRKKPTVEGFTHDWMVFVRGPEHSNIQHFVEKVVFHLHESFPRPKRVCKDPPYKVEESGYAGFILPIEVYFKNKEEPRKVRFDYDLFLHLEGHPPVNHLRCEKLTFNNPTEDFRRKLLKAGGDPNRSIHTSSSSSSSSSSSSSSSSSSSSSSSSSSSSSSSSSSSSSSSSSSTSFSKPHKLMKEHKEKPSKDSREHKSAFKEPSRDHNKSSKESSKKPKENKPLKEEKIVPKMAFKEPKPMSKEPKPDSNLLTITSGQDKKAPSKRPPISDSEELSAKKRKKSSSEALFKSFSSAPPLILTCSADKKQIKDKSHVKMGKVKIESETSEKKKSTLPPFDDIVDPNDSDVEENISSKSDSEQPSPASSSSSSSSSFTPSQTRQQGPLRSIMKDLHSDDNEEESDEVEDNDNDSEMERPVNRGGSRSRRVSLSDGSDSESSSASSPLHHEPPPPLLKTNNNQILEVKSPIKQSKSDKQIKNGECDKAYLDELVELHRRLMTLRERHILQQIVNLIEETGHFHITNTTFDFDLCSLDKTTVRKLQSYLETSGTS
Starred values were filed as active, the others as inactive; & = joins results of further samples.

A first look, 2 compounds:
SMILES	AF4-AF9 inh
C[C@H]1CN([C@@H](C)CO)C(=O)c2cc(NC(=O)c3ccncc3)ccc2O[C@@H]1CN(C)S(=O)(=O)c1cccs1	-2.6
CCCc1nc2c(C)cc(Br)cn2c1Cc1ccc(C)cc1	0.8

Main list (from the top)
SMILES	AF4-AF9 inh
C[C@H]1CN([C@@H](C)CO)C(=O)c2cc(NC(=O)c3ccncc3)ccc2O[C@@H]1CN(C)S(=O)(=O)c1cccs1	-2.6
CCCc1nc2c(C)cc(Br)cn2c1Cc1ccc(C)cc1	0.8
C[C@H](CO)N1C[C@H](C)[C@H](CN(C)Cc2ccc(Oc3ccccc3)cc2)OCc2ccccc2-c2ccccc2C1=O	-1.7
COc1ccc(S(=O)(=O)Nc2ccc3c(c2)C(=O)N([C@@H](C)CO)C[C@H](C)[C@@H](CN(C)S(=O)(=O)c2cn(C)cn2)O3)cc1	-3.1
CC(C)NC(=O)N(C)C[C@@H]1Oc2ccc(NC(=O)CCC(F)(F)F)cc2CC(=O)N([C@H](C)CO)C[C@@H]1C	-2.1
C[C@H](NC(=O)C[C@H]1C[C@@H]2c3cc(NC(=O)CN(C)C)ccc3O[C@@H]2[C@@H](CO)O1)c1ccccc1	1.1
O=C1c2ccccc2C(c2nnnn2Cc2ccccc2)N1Cc1ccco1 (centres undefined)	-1.0
C[C@H]1CN([C@@H](C)CO)C(=O)CCCn2cc(nn2)CO[C@@H]1CN(C)C(=O)Nc1ccc(C(C)(C)C)cc1	2.6&0.8
CCCNC(=O)N[C@H]1CC[C@@H](CC(=O)NC2CCC2)O[C@H]1CO	3.3
C[C@@H]1CCCCO[C@@H](CN(C)S(=O)(=O)c2ccc(Cl)cc2)[C@@H](C)CN([C@H](C)CO)C(=O)c2cc(NC(=O)C3CCCCC3)ccc2O1	-2.9
CSc1ccc(/C=C/C(=O)OCC(=O)NCC2CCCO2)cc1 (centres undefined)	2.9
C[C@@H]1CCCCO[C@H](CN(C)C)[C@@H](C)CN([C@H](C)CO)C(=O)c2cc(NS(=O)(=O)c3ccccc3)ccc2O1	-4.1
CC(C)CC#Cc1cnc2c(c1)C(=O)N([C@H](C)CO)C[C@H](C)[C@@H](CN(C)C(=O)C1CCOCC1)O2	-2.0
C[C@H](CO)N1C[C@H](C)[C@H](CN(C)CC2CC2)Oc2cc(-c3cccc(C#N)c3)ccc2S1(=O)=O	1.7
COC(=O)C1(C(=O)OC)C/C=C\CN(S(=O)(=O)c2ccccc2[N+](=O)[O-])CCC1	2.3
Cc1ccc(S(=O)(=O)N(C)C[C@H]2OCc3ccccc3-c3ccccc3C(=O)N([C@@H](C)CO)C[C@H]2C)cc1	4.7
COc1ccc(C(C(=O)Nc2c(C)cccc2C)N2CCN(c3ccc(C)cc3)CC2)cc1 (centres undefined)	-0.2
COc1cccc(C(=O)Nc2ccc3c(c2)C(=O)N(C)[C@H]2CC[C@@H](CC(=O)NCC(F)(F)F)O[C@H]2CO3)c1	-1.9
COc1ccc2c3c([nH]c2c1)[C@@H](CO)N(C(=O)c1ccc(F)cc1)CC31CN(C(=O)CC2CC2)C1	1.0
C[C@@H]1CN([C@H](C)CO)C(=O)c2cc(-c3cccc(F)c3)cnc2O[C@@H]1CN(C)C(=O)c1cccc(F)c1	-0.9
CCc1sc(N2[C@H](C#N)[C@H](c3ccccc3-c3ccc(F)cc3)[C@H]2CO)nc1C	-0.2
CS(=O)(=O)N1[C@@H]2c3ccc(-c4cccc(F)c4)c(=O)n3C[C@H]1[C@H](CO)[C@H]2C(=O)N1CCCCC1	-0.4
CCN(CC)c1ccc(C(=C2C=CC(=[N+](CC)CC)C=C2)c2ccc(S(=O)(=O)O)cc2S(=O)(=O)[O-])cc1	60*
COc1ccc(NC(=O)N[C@@H]2CC[C@@H](CCn3cc(C4(O)CCCC4)nn3)O[C@H]2CO)cc1	-0.8
C[C@H](CO)N1C[C@H](C)[C@@H](CN(C)Cc2ccc(F)cc2)Oc2ncc(C3=CCCC3)cc2C1=O	5.3
The list goes on:
SMILES	AF4-AF9 inh
CCCCCCCCN1C(=O)[C@H](CC(=O)NCC23CC4CC(CC(C4)C2)C3)C[C@@]2(C(=O)OCC)CCC=C12	-0.6
COc1ccc(-c2ccc([C@@H]3[C@H](C#N)N(C(=O)C4CCC4)[C@H]3CO)cc2)cc1	-2.2
COc1cccc(OC)c1OCCN1CCC(C(=O)NC(c2ccc3c(c2)OCO3)c2ccccn2)CC1 (centres undefined)	-1.1
COC(=O)c1ccc2nc(-c3ccccc3)c(Cc3cccc(F)c3)n2c1	-6.0
Cc1noc(C)c1NC(=O)N(C)C[C@@H]1Oc2c(NC(=O)c3cnccn3)cccc2C(=O)N([C@@H](C)CO)C[C@H]1C	-5.7
O=C(NCc1ccc(F)cc1)[C@H]1C[C@H]2C(=O)N3CCC[C@H]3C(=O)N2[C@H]1c1cccc(OCCO)c1	-1.8
C[C@H](CO)N1C[C@H](C)[C@H](CN(C)C(=O)C2CC2)Oc2cc(C#CC3CCCC3)ccc2S1(=O)=O	-16
CC(c1ccccc1C(=O)O)c1cc(F)cc2ccccc12 (centres undefined)	-2.1
C[C@H](CO)N1C[C@H](C)[C@@H](CN(C)S(=O)(=O)c2ccccc2)Oc2c(NC(=O)Nc3cccc4ccccc34)cccc2C1=O	2.9
COC(=O)C[C@H]1N(S(=O)(=O)c2ccc(C)cc2)C(C(C)C)CC1(C(=O)OC)C(=O)OC (some centres undefined)	-1.4
CC=Cc1ccc2n(c1=O)C[C@@H]1[C@@H](CO)[C@H](C(=O)N3CCCCC3)N(CC3CC3)[C@H]21 (mixture of isomers)	-1.7
O=C(NCCc1ccccc1)[C@@H]1[C@@H](CO)[C@@H]2Cn3c(ccc(-c4cccc(F)c4)c3=O)[C@H]1N2	-3.7
C[C@H]1CN([C@@H](C)CO)C(=O)c2cc(-c3cccc(F)c3)cnc2O[C@H]1CN(C)C(=O)C1CCCCC1	-3.8
C[C@@H]1CN([C@@H](C)CO)C(=O)Cc2cc(NS(C)(=O)=O)ccc2O[C@@H]1CN(C)Cc1ccc(C(=O)O)cc1	-3.8
Cc1ccc(S(=O)(=O)Nc2ccc3c(c2)CC(=O)N([C@H](C)CO)C[C@H](C)[C@H](CN(C)Cc2ccc(Cl)c(Cl)c2)O3)cc1	-4.5
COc1ccc2c(c1)C(CC(C)=O)N(c1ccc(-c3cccnc3)cc1)C(c1ccsc1)=C2 (centres undefined)	4.9
C[C@H]1CCCCO[C@H](CN(C)S(=O)(=O)c2ccccc2)[C@@H](C)CN([C@@H](C)CO)C(=O)c2cc(NS(=O)(=O)c3ccc(F)cc3)ccc2O1	0.0
CCN(C[C@@H]1[C@H](c2ccccc2)[C@@H](CO)N1C(=O)COC)S(C)(=O)=O	-1.6
CO[C@H](CN(C)C(=O)c1ccc2c(c1)OCO2)[C@@H](C)CN([C@H](C)CO)S(=O)(=O)c1ccccc1	0.0
CO[C@@H]1CN(C)C(=O)c2cc(NS(C)(=O)=O)ccc2OC[C@@H](C)N(CC2CC2)C[C@@H]1C	-1.0
C/C=C/c1ccc([C@H]2[C@@H](CO)N(C(=O)COC)[C@H]2CNC(=O)C2CC2)cc1	-3.8
COCCNC(=O)C[C@@H]1CC[C@@H]2[C@@H](COc3ccc(NS(=O)(=O)c4ccc(Cl)cc4)cc3C(=O)N2C)O1	-1.3
Cc1ccc(S(=O)(=O)N(C)C[C@@H]2Oc3cc(C4=CCCC4)ccc3S(=O)(=O)N([C@@H](C)CO)C[C@@H]2C)cc1	0.4
CC(C)(C)[S@@](=O)N1Cc2cc(C(=O)N3CCCCC3)nc(-c3cccc(-c4ccc(C#N)cc4)c3)c2[C@H]1CCO	-4.6
CC1(C(=O)NCc2ccc(Cl)cc2)CCN1C(=O)Cc1ccc(Cl)cc1Cl (centres undefined)	-6.7

Rewritten with bars between the fields: part of the list above.
canonical_smiles | AF4-AF9 inh
O=C(NCc1ccc(F)cc1)[C@H]1C[C@H]2C(=O)N3CCC[C@H]3C(=O)N2[C@H]1c1cccc(OCCO)c1 | -1.8
C[C@H](CO)N1C[C@H](C)[C@H](CN(C)C(=O)C2CC2)Oc2cc(C#CC3CCCC3)ccc2S1(=O)=O | -16
CC(c1ccccc1C(=O)O)c1cc(F)cc2ccccc12 (centres undefined) | -2.1
C[C@H](CO)N1C[C@H](C)[C@@H](CN(C)S(=O)(=O)c2ccccc2)Oc2c(NC(=O)Nc3cccc4ccccc34)cccc2C1=O | 2.9
COC(=O)C[C@H]1N(S(=O)(=O)c2ccc(C)cc2)C(C(C)C)CC1(C(=O)OC)C(=O)OC (some centres undefined) | -1.4
CC=Cc1ccc2n(c1=O)C[C@@H]1[C@@H](CO)[C@H](C(=O)N3CCCCC3)N(CC3CC3)[C@H]21 (mixture of isomers) | -1.7
O=C(NCCc1ccccc1)[C@@H]1[C@@H](CO)[C@@H]2Cn3c(ccc(-c4cccc(F)c4)c3=O)[C@H]1N2 | -3.7
C[C@H]1CN([C@@H](C)CO)C(=O)c2cc(-c3cccc(F)c3)cnc2O[C@H]1CN(C)C(=O)C1CCCCC1 | -3.8
C[C@@H]1CN([C@@H](C)CO)C(=O)Cc2cc(NS(C)(=O)=O)ccc2O[C@@H]1CN(C)Cc1ccc(C(=O)O)cc1 | -3.8
Cc1ccc(S(=O)(=O)Nc2ccc3c(c2)CC(=O)N([C@H](C)CO)C[C@H](C)[C@H](CN(C)Cc2ccc(Cl)c(Cl)c2)O3)cc1 | -4.5
COc1ccc2c(c1)C(CC(C)=O)N(c1ccc(-c3cccnc3)cc1)C(c1ccsc1)=C2 (centres undefined) | 4.9
C[C@H]1CCCCO[C@H](CN(C)S(=O)(=O)c2ccccc2)[C@@H](C)CN([C@@H](C)CO)C(=O)c2cc(NS(=O)(=O)c3ccc(F)cc3)ccc2O1 | 0.0
CCN(C[C@@H]1[C@H](c2ccccc2)[C@@H](CO)N1C(=O)COC)S(C)(=O)=O | -1.6
CO[C@H](CN(C)C(=O)c1ccc2c(c1)OCO2)[C@@H](C)CN([C@H](C)CO)S(=O)(=O)c1ccccc1 | 0.0
CO[C@@H]1CN(C)C(=O)c2cc(NS(C)(=O)=O)ccc2OC[C@@H](C)N(CC2CC2)C[C@@H]1C | -1.0
C/C=C/c1ccc([C@H]2[C@@H](CO)N(C(=O)COC)[C@H]2CNC(=O)C2CC2)cc1 | -3.8
COCCNC(=O)C[C@@H]1CC[C@@H]2[C@@H](COc3ccc(NS(=O)(=O)c4ccc(Cl)cc4)cc3C(=O)N2C)O1 | -1.3
Cc1ccc(S(=O)(=O)N(C)C[C@@H]2Oc3cc(C4=CCCC4)ccc3S(=O)(=O)N([C@@H](C)CO)C[C@@H]2C)cc1 | 0.4
CC(C)(C)[S@@](=O)N1Cc2cc(C(=O)N3CCCCC3)nc(-c3cccc(-c4ccc(C#N)cc4)c3)c2[C@H]1CCO | -4.6
CC1(C(=O)NCc2ccc(Cl)cc2)CCN1C(=O)Cc1ccc(Cl)cc1Cl (centres undefined) | -6.7

Following part
SMILES	AF4-AF9 inh
O=C(C[C@H]1C[C@H]2c3cc(NC(=O)NC4CCCC4)ccc3O[C@H]2[C@H](CO)O1)NCc1ccc(-c2ccccc2)cc1	-0.9
COc1ccc(S(=O)(=O)N(C)C[C@H]2Oc3ccc(NS(=O)(=O)c4c(C)noc4C)cc3C(=O)N([C@@H](C)CO)C[C@H]2C)cc1	-1.3
COc1ccc2c3c([nH]c2c1)[C@@H](CO)N(C(=O)C1CCCC1)CC31CN(S(C)(=O)=O)C1	-0.9
CS(=O)(=O)Nc1ccc2c(c1)[C@@H]1C[C@@H](CC(=O)N3CCc4ccccc4C3)O[C@@H](CO)[C@@H]1O2	-1.6
O=C(C1CCOCC1)N1CC(=O)N2[C@H](C1)[C@H](c1ccc(-c3cccnc3)cc1)[C@@H]2CO	0.0
COc1ccc(C(C)(NC(C)=O)c2nc(-c3cccc(C(F)(F)F)c3)cs2)cc1 (centres undefined)	0.7
CC(C)C#Cc1ccc2c(c1)O[C@H](CN(C)C(=O)Nc1ccccc1)[C@H](C)CN([C@@H](C)CO)S2(=O)=O	2.5
CNC[C@H]1Oc2c(NC(=O)C3CC3)cccc2C(=O)N([C@@H](C)CO)C[C@H]1C	-3.2
CCCC(=O)Nc1ccc2c(c1)C(=O)N(C)[C@H]1CC[C@@H](CC(=O)NCC3CCCCC3)O[C@@H]1CO2	1.0

Not all compounds are listed (hit frequency here may not be typical).
